Bioassay records as filed in PubChem BioAssay.
STK33 inh – inhibitors of purified STK33 kinase, primary screen, biochemical, ADP-Glo luminescence, homogeneous, cell-free | Serine/threonine-protein kinase 33 (Homo sapiens), Q9BYT3 | MBP phosphorylation | inhibition, % at 10 µM | 320,000 compounds, 0.073% hits | AID 2661, 2010;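 active = inhibition at or above 25%, using the most active replicate where run in duplicate; inactive = inhibition below 25%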
Target sequence (Q9BYT3 whole entry, looked up): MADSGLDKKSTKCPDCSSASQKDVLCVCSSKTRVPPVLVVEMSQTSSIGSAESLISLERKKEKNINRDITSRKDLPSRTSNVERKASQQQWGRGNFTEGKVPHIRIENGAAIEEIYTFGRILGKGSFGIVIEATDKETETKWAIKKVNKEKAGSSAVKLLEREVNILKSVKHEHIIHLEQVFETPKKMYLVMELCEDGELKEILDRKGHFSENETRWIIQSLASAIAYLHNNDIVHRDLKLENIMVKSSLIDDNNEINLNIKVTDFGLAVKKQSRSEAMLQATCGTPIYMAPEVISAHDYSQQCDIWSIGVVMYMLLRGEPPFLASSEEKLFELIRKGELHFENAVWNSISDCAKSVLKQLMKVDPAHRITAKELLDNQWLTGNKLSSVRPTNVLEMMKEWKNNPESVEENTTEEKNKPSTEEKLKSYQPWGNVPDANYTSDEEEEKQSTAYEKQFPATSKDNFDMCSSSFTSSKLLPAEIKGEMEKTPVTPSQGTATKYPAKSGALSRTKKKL
Numbers without * were called inactive. Some of the compounds tested, and most or all hits are left out here.

SMILES,STK33 inh
Cc1cccc(N2CCN(C(=O)c3cccc(N4C(=O)C5CC=CC(C)C5C4=O)c3)CC2)c1C (configuration not stated),-0.8
C/C(=N\S(=O)(=O)c1ccc(C)cc1)N1CCCCC1,-0.4
CC(=O)NC(C)Cc1cn(Cc2ccccc2)c2ccccc12 (configuration not stated),-0.5
Oc1c(Cl)cc(Cl)cc1CNc1nc2ccccc2[nH]1,-1.3
Cc1nc(C)c(C(=O)NNS(=O)(=O)c2ccc3ccccc3c2)s1,0.1
CC1CCCC(C)N1C(=O)c1ccccc1Nc1ccc(SC(F)F)cc1 (configuration not stated),-1.6
CCC(C)N=CC1=C(O)CC(c2ccccc2)CC1=O (configuration not stated),1.5
Cn1ccnc1C1CCCCN1Cc1nc(Cc2ccccc2F)no1 (configuration not stated),-2.0
COc1ccc(N2CCN(CCCNC(=O)C3CCCN(S(=O)(=O)c4c(C)n[nH]c4C)C3)CC2)cc1 (configuration not stated),-1.1
O=C1COc2ccccc2N1Cc1ccc(Cl)cc1,-0.2
Cc1ccc(OCC(O)CN2CCN(CC(O)COc3ccc(C)cc3Cl)CC2)c(Cl)c1 (configuration not stated),0.2
COc1ccccc1CCNC(=O)NC1CCCCC1,-0.2
Cc1csc(NC(=O)c2c(O)c3c(n(CC(C)C)c2=O)CCCC3)n1,-0.1
O=S(=O)(Nc1ncccn1)c1ccc(NC(=S)Nc2cccc(Cl)c2)cc1,-0.4
Cc1cccn2c(=O)c3cc(C(=O)NCC4CCCO4)c(=N)n(CC4CCCO4)c3nc12 (configuration not stated),0.0
COc1ccc(-c2nn(-c3ccccc3C)cc2CNC(C)Cn2cncn2)cc1F (configuration not stated),0.1
COC(=O)[C@H](CCSC)NC(=O)NCCC1=CCCCC1,-2.3
O=C(NCc1ccccc1F)C1CCCN(c2cnccn2)C1 (configuration not stated),1.5
c1ccc2[nH]c(CN3CCCCCC3)nc2c1,-0.2
CC12CCC(C(=O)N(CCC#N)CCC#N)(CC1=O)C2(C)C (configuration not stated),-1.1
CCCCN(C(=O)c1ccc(-c2ccc([N+](=O)[O-])cc2)o1)c1c(N)n(CCCC)c(=O)[nH]c1=O,0.0
CN1CCN(c2nc3c(c(=O)n(C)c(=O)n3C)n2CC(N)=O)CC1,-0.5
COc1ccccc1NC(=O)CN1C(=O)NC(C)(C)C1=O,-1.3
O=[N+]([O-])c1ccc(NCc2ccc3c(c2)OCO3)cc1,-0.6
CCNc1nc2cccnc2s1,-1.0
CCN(CCNC(=O)C1CCCN(S(=O)(=O)CC)C1)c1ccccc1 (configuration not stated),-1.3
Cn1cccc1-c1cc(C(=O)N/N=C/C=C/c2ccccc2)[nH]n1,0.8
CNc1nc(Nc2ccc(Br)cc2)nc(N)c1[N+](=O)[O-],1.5
COC(=O)c1ccc(-n2c(C)cc(C(=O)CSc3cccc[n+]3[O-])c2C)cc1,0.0
CC(C)NC(=O)c1onc(CSc2ccc(Cl)cc2)c1C(=O)O,-0.5
CC1(OC(=O)C2CCCC2)C(=O)C=C2C=C(c3ccsc3)N(CC3CC3)C=C2C1=O (configuration not stated),-1.3
COc1ccc(C2c3c(oc4ccccc4c3=O)C(=O)N2CC2CCCO2)cc1 (configuration not stated),-0.2
COc1cc(C2Nc3ccc4ncccc4c3C3=C2C(=O)CCC3)cc(OC)c1OC (configuration not stated),-2.3
COc1ccc([N+](=O)[O-])cc1NC(=O)COC(=O)c1ccc(O)cc1,-1.5
Cc1nn(Cc2ccccc2)c(Cl)c1/C=C/C(=O)OCC(=O)N1CCCC1=O,-0.1
COc1ccc(-n2nc(C(=O)NCC(=O)N3CCN(Cc4ccc5c(c4)OCO5)CC3)c3ccccc3c2=O)cc1OC,0.3
CCOC(=O)C(CC)Sc1ccc2nnc(-c3cccnc3)n2n1 (configuration not stated),0.5
CC(C)c1nnc(NC(=O)c2c(O)c3cccc4c3n(c2=O)CCC4)s1,-0.4
COc1ccc(C(C)=O)cc1COC(=O)CCC(=O)N(CC(C)C)c1c(N)n(CC(C)C)c(=O)[nH]c1=O,-0.5
Cc1cc(N2CCN(C(=O)/C=C/C(=O)O)CC2)c2ccccc2n1,-2.3
O=C(O)c1sc2cc(C(F)(F)F)cnc2c1-c1ccccn1,-2.5
O=C(Cn1cc(C(F)(F)F)ccc1=O)N/N=C/c1ccc(F)cc1,12.4
O=[N+]([O-])c1ccc(Cl)c(C2Nc3cccc4cccc(c34)N2)c1,-0.1
CCS(=O)(=O)c1nc(S(=O)(=O)c2ccc(C)cc2)c(N2CCCC(C)C2)s1 (configuration not stated),-1.0
Cn1c(COc2ccccc2)nnc1SCc1nc2ccccc2[nH]1,0.3
Cc1csc(NC(C)c2nc3cc(Cl)c(Cl)cc3n2CCCO)n1 (configuration not stated),0.1
CCN(C(=O)c1cc(Cl)ccc1OC)C1CCCCC1,0.3
COc1ccc(NC(=O)c2nnn(CC(=O)Nc3ccc4c(c3)OCO4)c2N)cc1OC,0.4
O=C(Nc1nccs1)Oc1ccccc1,-2.3
CCOc1ccc(S(=O)(=O)Nc2ccc(O)c(Sc3ncn[nH]3)c2)cc1,-0.5
CC1(C)C(c2cccs2)=[N+]([O-])C2(CCCCC2=O)N1O (configuration not stated),-0.2
COc1cc(N)c(Cl)cc1Cl,-0.9
O=C(O)c1ccc(S(=O)(=O)Nc2ccc3c(c2)OCCO3)cc1,-0.9
NC(=O)c1ccc(NC(=O)COC(=O)c2cccc(Oc3ccccc3)c2)cc1,-0.7
O=C(CCCN1C(=O)c2ccccc2C1=O)NCCc1ccc(OC(F)F)cc1,-0.2
COc1cc(OCc2ccccc2)c(C(=O)/C=C/c2ccc3c(c2)OCO3)c(OC)c1OC,-2.0
CC(=O)Nc1ccc2c(c1)OCO2,-1.7
O=C(NC12CC3CC(CC(C3)C1)C2)c1cccnc1Cl,-0.2
COCCCNC(=O)CCS(=O)(=O)Cc1ccc(C)cc1,0.4
Cc1c(NCc2cccnc2)cccc1C(=O)O,0.1

(continued)
SMILES,STK33 inh
Cc1ccc(C)c(OCC(O)CN2CCC(Cc3ccccc3)CC2)c1 (configuration not stated),1.5
CC(C)(C)C(=O)NC1CC2CCCC(C1)N2C(=O)Nc1ccccc1 (configuration not stated),-0.4
CSc1nsc(SCC(=O)N2CCCCC2)n1,0.3
COc1cc(OC)c(N(C)C(=O)c2cc3c(s2)-c2ccccc2S(=O)(=O)C3)cc1Cl,1.6
CNC(=O)COc1ccc(S(=O)(=O)Nc2ccccc2)cc1,-1.4
COc1ccc(N(CC(=O)Nc2ccc(F)cc2F)S(=O)(=O)c2c(C)nn(C)c2C)cc1,0.7
O=C1c2ccccc2C(=O)N1OS(=O)(=O)c1ccc(F)cc1,1.0
CCN(CC)S(=O)(=O)c1ccc(O)c(NC(=O)c2cc(-c3cc(OC)c(OC)c(OC)c3)nc3ccccc23)c1,-0.7
CCOC(=O)CN1C(=O)NC2NC(=O)NC21 (configuration not stated),-0.4
CC1CCN(C(=O)COc2coc(CN3CCc4ccccc43)cc2=O)CC1,-1.5
CCCC1NC(=S)N(C2CCCCC2)C1=O (configuration not stated),-0.3
CCNC(=O)c1ccccc1NC(=O)C1CC(=O)N(C(C)C)C1 (configuration not stated),-0.6

Compounds from the list above that have a thiophene ring, fused or not, in the order listed:
SMILES,STK33 inh
CC1(OC(=O)C2CCCC2)C(=O)C=C2C=C(c3ccsc3)N(CC3CC3)C=C2C1=O (configuration not stated),-1.3
O=C(O)c1sc2cc(C(F)(F)F)cnc2c1-c1ccccn1,-2.5
CC1(C)C(c2cccs2)=[N+]([O-])C2(CCCCC2=O)N1O (configuration not stated),-0.2
COc1cc(OC)c(N(C)C(=O)c2cc3c(s2)-c2ccccc2S(=O)(=O)C3)cc1Cl,1.6

Filtered by structure: those above containing two or more sulfur atoms.
SMILES,STK33 inh
Cc1nc(C)c(C(=O)NNS(=O)(=O)c2ccc3ccccc3c2)s1,0.1
O=S(=O)(Nc1ncccn1)c1ccc(NC(=S)Nc2cccc(Cl)c2)cc1,-0.4
CCS(=O)(=O)c1nc(S(=O)(=O)c2ccc(C)cc2)c(N2CCCC(C)C2)s1 (configuration not stated),-1.0
CCOc1ccc(S(=O)(=O)Nc2ccc(O)c(Sc3ncn[nH]3)c2)cc1,-0.5
CSc1nsc(SCC(=O)N2CCCCC2)n1,0.3
COc1cc(OC)c(N(C)C(=O)c2cc3c(s2)-c2ccccc2S(=O)(=O)C3)cc1Cl,1.6

Additional compounds:
SMILES,STK33 inh
O=C(O)c1ccccc1N(Cc1ccccc1)C(=O)COc1ccccc1,-1.1
Cc1ccccc1C(=O)Nc1ccc(-c2nc3ccc(C(=O)c4ccccc4)cc3[nH]2)cc1,0.1
O=C(Cn1cccc1C(=O)c1ccccc1)NCc1ccccc1Cl,-1.6
COc1ccc(/C=C/C(=O)NC(=S)NNC(=O)c2cccs2)cc1,-0.8
Cc1ccc(S(=O)(=O)N2CC(O)CC2C(=O)Nc2ccc3c(c2)CCC3)cc1 (configuration not stated),0.0
Cc1ccc(S(=O)(=O)N2CC(=O)Nc3ccccc32)cc1C,-1.4
Cc1cc(C(=O)Cn2nnc3ccccc3c2=O)c(C)n1-c1ccccc1F,-2.5
COc1ccc(C)cc1NC(=O)COC(=O)c1c(C)noc1C,0.3
CCOC(=O)c1c(NC(=O)c2c(C)noc2C)sc2c1CCCCC2,-1.3
Cc1ccc(NC(=O)c2ccccc2-c2ccc(C(F)(F)F)cc2)cc1S(=O)(=O)N1CCOCC1,-1.4
O=C(c1[nH]nc2c1CCc1ccccc1-2)N1CCN(Cc2ccc3c(c2)OCO3)CC1,4.7
COc1cccc(NC(=O)CCNC(=O)N2CC(=O)Nc3ccccc32)c1,0.8
CN1C(=O)/C(=C\c2cc(Br)cs2)c2ccccc21,-0.3
O=C(O)C1C2CCC(O2)C1C(=O)Nc1cnn(Cc2ccccc2)c1 (configuration not stated),-2.7
CC1CCN(c2nc3c(=O)[nH]c(N)nc3n2[C@@H]2O[C@H](CO)[C@@H](O)[C@H]2O)CC1,-1.0
O=C(NC1CCCCCC1)C1CCN(c2nc3ccccc3o2)CC1,0.2
CN(Cc1ccc(F)cc1Cl)S(=O)(=O)c1cccs1,0.6
COc1ccc(NC(=O)CSc2ccc3nnc(-c4cccnc4)n3n2)cc1OC,-1.2
O=C(CCCn1c(=O)[nH]c2ccsc2c1=O)N1CCN(c2ccccn2)CC1,0.0
COc1cc(=O)n2c(-c3ccccc3)csc2n1,-2.2
CCCNC(=O)NC(=O)COC(=O)c1cccc(NS(=O)(=O)c2ccc(F)c(F)c2)c1,0.2
N#Cc1cccc2cnccc12,-1.4
CCc1ccc(OC(=O)CN2C(=O)c3ccccc3C2=O)cc1,0.8
Cn1c(=O)c2c(SCC(=O)NCc3ccco3)nc(CC(C)(C)C)nc2n(C)c1=O,-0.6
COc1cccc(-c2ccnc3[nH]n(-c4ccccc4)c(=O)c23)c1,-1.0
COc1ccccc1NC(=O)Cc1noc(CSc2n[nH]c(N)n2)n1,0.0
CCCCOc1ccc(Br)cc1/C(C)=N/NC1=NCCN1,0.7
O=C(Nc1cc(S(=O)(=O)N2CCOCC2)ccc1N1CCOCC1)c1cnccn1,2.0
Cc1ccc(S(=O)(=O)CCC(=O)Nc2cccc(Cl)c2)cc1,-3.1
O=C(C1CCCN(S(=O)(=O)Cc2ccccc2)C1)N1CCCCC1 (configuration not stated),-1.7
COC(=O)c1cccc(NC(=O)Cc2nc(-c3ccccc3)sc2-c2ccc(C)cc2)c1,-0.2
Cc1cc2cc(CNC(=O)c3ccc(S(=O)(=O)N(C)C)cc3)ccc2n1C,1.0
COC(=O)[C@@]1(Cc2ccc(F)cc2)[C@H]2c3cc(C(=O)N4CCCC4)n(CCCNc4ncc(C(F)(F)F)cc4Cl)c3C[C@H]2CN1C(=O)c1ccccc1,0.3
O=C(NCC(c1ccco1)N1CCN(c2ccccc2F)CC1)c1ccc2c(c1)OCO2 (configuration not stated),-0.9
CCOC(=O)C1C(=O)C=C(C)C(C(=O)OCC)C1c1ccc(OC)cc1 (configuration not stated),0.0
CC(C)N(CC#CCC(O)(c1ccccc1)C1CCCC1)CCO (configuration not stated),-2.3
Cc1nc2nc(-c3cccs3)[nH]c2cc1Br,1.3
COC(=O)CCNc1ccc2c(c1)OCCO2,1.1
CC1CCCCC1NC(=O)CNC(=O)c1cccs1 (configuration not stated),-0.3
Cc1ccccc1NS(=O)(=O)c1ccc(C(=O)NCC(c2ccco2)N2CCCCC2)cc1 (configuration not stated),-1.4
O=C(NC1CC1)C1CCN(c2ccc(S(=O)(=O)N3CCOCC3)cc2Cl)CC1,0.1
COc1ccc(OCCn2c(NC(=O)c3ccco3)nc3ccccc32)cc1,-0.6
COc1ccc(NC(=O)CNCCC2=CCCCC2)cc1,-2.0
O=C(NC(=S)Nc1nc(-c2ccc(Br)cc2)cs1)c1cccnc1,0.2
COc1ccccc1Nc1nc(N)nc(CN(C)C2CCCCC2)n1,-1.3
CC(=O)c1ccc(NC(=S)Nc2cccc(S(=O)(=O)Nc3c(C)n(C)n(-c4ccccc4)c3=O)c2)cc1,-0.5
CCOc1ccc(S(=O)(=O)NCc2ccccn2)cc1,-0.1
S=C1SCN(Cc2cccnc2)CN1Cc1cccnc1,-0.5
O=C(N/C=C\c1ccccc1)NCc1ccc(Cl)cc1,-4.2
O=C(c1ccc(S(=O)(=O)Cc2cc(F)ccc2F)c([N+](=O)[O-])c1)N1CCCCC1,-0.3
CCCCn1c(N)c(N(CCOC)C(=O)COC(=O)COc2cc(C)c(Cl)cc2C(C)C)c(=O)[nH]c1=O,0.9
N#Cc1c(N)n(-c2ccccc2N)c2nc3ccccc3nc12,-0.4
CCOC(=O)c1ccc(N=NN(C)C)cc1,-0.3
CSc1nnc(-c2cccc(NC(=O)c3ccccc3)c2)n1C,-1.6
